AF4-AF9 inh = blocks AF4 peptide binding to human AF9; P42568; AlphaScreen, biotin-AF4 peptide binding to FLAG-AF9; inhibition, % at 10 µM; 350,000 tested, 0.47% active; AID 651704;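 active = every replicate reaching a set inhibition limit, whatever the replicate mean, cut at about 25% in these data; inconclusive = mean inhibition reaches that limit but some replicates miss it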;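 note: 0% = plate neutral control median and 100% = total signal loss; the record names both 10 and 1 µM as test concentration; the first replicate is given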
Target sequence (P42568 whole entry, looked up): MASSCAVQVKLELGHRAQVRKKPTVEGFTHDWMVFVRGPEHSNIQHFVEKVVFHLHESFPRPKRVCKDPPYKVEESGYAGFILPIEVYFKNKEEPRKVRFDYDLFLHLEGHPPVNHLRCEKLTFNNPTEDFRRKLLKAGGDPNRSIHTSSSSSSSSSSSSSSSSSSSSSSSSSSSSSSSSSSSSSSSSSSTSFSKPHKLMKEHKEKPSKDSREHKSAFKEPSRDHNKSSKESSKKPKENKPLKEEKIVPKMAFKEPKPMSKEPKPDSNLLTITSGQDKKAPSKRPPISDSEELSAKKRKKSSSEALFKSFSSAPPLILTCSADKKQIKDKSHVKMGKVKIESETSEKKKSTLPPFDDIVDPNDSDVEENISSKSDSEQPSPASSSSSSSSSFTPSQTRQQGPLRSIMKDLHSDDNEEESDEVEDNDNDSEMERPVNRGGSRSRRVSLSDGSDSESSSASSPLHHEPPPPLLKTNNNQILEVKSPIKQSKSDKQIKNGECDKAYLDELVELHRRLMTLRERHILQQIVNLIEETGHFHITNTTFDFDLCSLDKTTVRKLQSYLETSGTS
T cruzi repl = T. cruzi replication inhibition; T. cruzi beta-gal in NIH3T3, luminescence, 90 h; inhibition, % (test concentration not listed); 300,000 tested, 1.4% active; AID 1885;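 active = mean inhibition across valid replicates above about 55%, limit read from the data; inconclusive = mean below that limit but half or more replicates reach it; inactive = mean below it, under half of replicates reach it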;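 note: signal also drops with host cell toxicity which is not excluded here; 0% = plate median of DMSO wells and 100% = zero luminescence signal; higher percent means less beta-gal luminescence so fewer parasites; stock transfer was 50 nL into about 50 µL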
RanGTP-Impb inh = inhibitors of RanGTP-importin-beta interaction, primary screen, biochemical, FRET, CFP-Ran, YFP-importin-beta, homogeneous; cell-free CFP-Ran/YFP-importin-beta FRET ratio; inhibition, % (concentration not given with the values); 300,000 tested, 1.1% active; AID 2216;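 active = most replicates above 15%; inconclusive = exactly half above 15%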;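 note: 0% = DMSO wells and 100% = Ran loaded with GDP instead of GTP; wells of about 40 µL received 100 nL stock; the first replicate is given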
FGF22 binding = binders of recombinant human FGF22 by thermal shift. 340,000 tested, 1.5% active. calls only at 9.99 µM. SYPRO orange fluorescence; percent of sucrose octasulfate shift, DMSO zero;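 active = melting point raised past a set limit in the mean and every replicate; inconclusive = no clear call; three in four hits are not shown here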
Target sequence (Q9HCT0 whole entry, looked up): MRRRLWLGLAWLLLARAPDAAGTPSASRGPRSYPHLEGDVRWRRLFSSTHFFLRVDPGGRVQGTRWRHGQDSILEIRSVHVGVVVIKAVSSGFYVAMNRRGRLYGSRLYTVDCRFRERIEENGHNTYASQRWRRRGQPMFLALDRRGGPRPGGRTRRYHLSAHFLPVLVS
Calb FLC = C. albicans growth modulation with fluconazole | C. albicans CaCi-2 (fluconazole-resistant clinical isolate) + fluconazole, Alamar Blue growth, 48 h | growth inhibition, % (concentration not given with the values) | 300,000 tested, 0.57% active | AID 1979;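 active = most replicates above 75%; inconclusive = exactly half above 75%; inactive = most below 75%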;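 note: all wells also contain fluconazole at 8 µg/ml as a sub-toxic cotreatment; 0% = median of DMSO wells and 100% = median of geldanamycin control wells; wells of about 8 µL received 7.5 nL stock; the first replicate is given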
ALR H2O2 inh = blocks human ALR sulfhydryl oxidase activity; P55789; purified ALR, DTT oxidation, H2O2 HRP-luminol luminescence; inhibition, % (concentration not given with the values); 290,000 tested, 3.8% active;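 active = mean and each replicate at 75% or more; inconclusive = only one of the two met; inactive = neither met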;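 note: stock transfer was 7.5 nL into about 7.5 µL; 0% = neutral wells and 100% = wells with inactivated enzyme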
Target sequence (P55789 whole entry, looked up): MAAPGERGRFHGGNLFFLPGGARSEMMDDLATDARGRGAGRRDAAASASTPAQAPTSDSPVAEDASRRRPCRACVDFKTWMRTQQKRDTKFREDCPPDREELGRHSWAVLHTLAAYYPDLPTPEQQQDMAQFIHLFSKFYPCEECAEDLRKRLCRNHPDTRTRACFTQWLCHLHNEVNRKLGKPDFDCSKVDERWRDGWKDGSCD
rRNA inh HTS = inhibits bacterial ribosomal RNA function over humanized ribosomes. E. coli WT GFP vs humanized-ribosome RFP mutants, fluorescence, 24 h; active compounds read low; DMSO median 0, no signal -100. GFP signal change (wild-type ribosome), % (concentration not given with the values). 350,000 tested, 1.6% active. AID 720706;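 active = significant combined selectivity score with lowered wild-type GFP, culture density cut under 30%, mutant RFP and density less affected; inactive = any of these conditions unmet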; note: one replicate is shown; some compounds called inactive have numbers as strong as hits
Beta apoptosis = beta cell apoptosis inhibition; INS-1E cytokine-induced death, ATP luminescence, 48 h; percent of positive-control rescue, neutral wells zero; protection from apoptosis, % (concentration not given with the values); 300,000 tested, 0.8% active; AID 435005;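 active = all replicates at 75% or more, or half of them and the mean; inconclusive = half reach 75% but not the mean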;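 note: 0% = cytokine-treated negative control wells and 100% = positive control rescue; higher means more ATP so stronger rescue from cytokine killing; wells of about 40 µL received 100 nL stock; the first replicate is given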
rRNA inh HTS OD600 = also measured in rRNA inh HTS; calls as there; OD600 change, %; measured here: OD600 growth;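 optical density of the mix in the first replicate; 0 = DMSO median and -100 = no signal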
rRNA inh HTS RFP = recorded beside rRNA inh HTS, whose call it bears; RFP signal change, %; measured here: RFP humanized mutant strains;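 first replicate; 0 = DMSO median and -100 = no signal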
Active calls of the source: *; i = inactive; ? = inconclusive; . = no result given; & = joins results of further samples. Some of the compounds tested (hit frequency here may not be typical).

Sequence of screens – ALR H2O2 inh | RanGTP-Impb inh | rRNA inh HTS | Beta apoptosis | AF4-AF9 inh | rRNA inh HTS OD600 | rRNA inh HTS RFP | Calb FLC | FGF22 binding | T cruzi repl
CC(NC(=O)c1ccccc1F)c1nnc(SCC(=O)Nc2nnc(C3CC3)s2)n1C (stereo not given)
    . | 4.2 | 2 | -1 | -28 | 5 | -0.8 | 4 | i | -3
Cc1ccc(N2C(=O)C(Cl)=C(N3CCCCCC3)C2=O)c(C)c1
    5 | -4.4 | -2 | 1 | 4.6 | -5 | -3.1 | 20 | i | 23
COc1ccc2c(c1)C(c1cccs1)=NNC(c1ccncc1)=N2
    4 | 3.5 | 2 | -3 | 9.7 | 0 | -1.0 | 17 | . | 8
CC(C)NC(=O)N(C)C[C@@H]1Oc2ccc(NC(=O)CCN3CCOCC3)cc2CC(=O)N([C@@H](C)CO)C[C@@H]1C
    5 | . | -2&7 | 5 | -2.7&-4.7 | 1&6 | -3.8&1.7 | . | i | .
c1cc2c(cc1C1CCCCC1)c1c3n2CCCNC3CCC1 (stereo not given)
    -17 | 3.1 | . | 18 | . | . | . | -2 | . | 22
COc1ccc(C2=[N+](C)CCn3cccc32)c(OC)c1
    -14 | -0.1 | . | 33 | . | . | . | 1 | . | 4
Cc1nn2c(NCCCn3ccnc3)cc(C(C)C)nc2c1-c1ccccc1
    73 | -0.2 | -45* | 8 | 17 | -35* | -4.6* | -14 | i | 53
C=CCNC(=O)CSc1ccc(Cl)cc1
    3 | 0.0 | . | -8 | . | . | . | -7 | . | -5
CCCCn1c(N)c(N(CCOC)C(=O)COC(=O)c2cc(CCC)c(C)s2)c(=O)[nH]c1=O
    -5 | 3.1 | -6 | . | 41* | -13 | 2.3 | -3 | i | -3
CCN1CCCC1CNC(=O)c1cc2c(=O)n(C)c3ccccc3c2n1C (stereo not given)
    -2 | ? | -10 | -1 | -0.6 | -3 | 0.1 | 1 | i | 2
CN(C1CCCC1)C1CCN(C(=O)CNC(=O)/C=C/c2cccc(C(F)(F)F)c2)CC1
    -23 | 1.2 | -1 | -10 | -0.7 | -2 | 2.8 | -1 | i | 4
Cc1ccccc1C1=NC(C(F)(F)F)(C(F)(F)F)c2c(n(-c3ccc(F)cc3)c(=O)[nH]c2=O)N1
    1 | -2.5 | -3 | 5 | 3.2 | 9 | 0.3 | -13 | i | 10
COc1ccc(C(=O)COC(=O)C(CC(C)C)N2C(=O)c3ccccc3C2=O)cc1 (stereo not given)
    -2 | -2.7 | . | -2 | . | . | . | 5 | . | -3
COc1ccc(OC)c(S(=O)(=O)Nc2ccccc2C(F)(F)F)c1
    -18 | -1.6 | . | -5 | . | . | . | -7 | . | -16
COc1ccc(NS(=O)(=O)c2cccc(C(=O)NCCCN3CCCC3=O)c2)cc1
    -36 | 4.2 | 0 | 0 | -5.2 | 6 | -1.8 | 1 | i | -2
CCN(CC(=O)Nc1ccccc1C(F)(F)F)CC(=O)NC1CC1
    -2 | . | 16 | -5 | -1.7 | 12 | 1.5 | . | i | .
COc1ccccc1N1CN(Cc2ccccc2)CNC1=S
    -24 | 5.7 | 2 | 5 | -3.4 | 6 | 0.9 | 1 | i | -35
CN1CCN(C2=Cc3ccccc3Sc3cc(F)c(Cl)cc32)CC1
    0 | ? | . | 5 | . | . | . | -2 | . | 12
CCn1c(O)c(/C=C2\C=Nc3ccccc32)sc1=O
    -11 | -0.4 | . | -5 | -0.4 | . | . | 31 | i | -16
CCCNC(=O)c1ccc(-c2nc3ccccc3s2)s1
    . | 1.2 | . | 9 | . | . | . | 6 | . | 9
CN(CCN1CCc2ccccc2C1)Cc1nc(-c2ccc3c(c2)OCO3)no1
    -8 | -0.5 | 3 | -8 | 1.1 | 1 | 0.7 | -18 | i | 30
COc1ccc(OC)c(NC(=O)c2nnn(CCc3ccccc3)c2N)c1
    -14 | -3.0 | -1 | 3 | 11 | 4 | -1.9 | -5 | i | 5
CC(Oc1ccccc1)C(=O)N1CCN(c2ccc(N3CCOCC3)nn2)CC1 (stereo not given)
    4 | 2.5 | 5 | . | 2.4 | 0 | -1.4 | 0 | i | 5
Cc1cc(C)c(S(=O)(=O)N2CCOCC2)cc1NS(=O)(=O)c1cc(OCC(N)=O)c(C)cc1Cl
    -14 | -0.7 | -18 | 4 | -1.2 | -16 | 0.4 | 13 | i | 14
CCOc1ncccc1C(=O)OCC(=O)Nc1ncc(C(F)(F)F)cc1Cl
    0 | 2.4 | . | 1 | . | . | . | -6 | . | -2
CNC(=S)N/N=C/C1=CCC2CC1C2(C)C (stereo not given)
    12 | 1.9 | 4 | -7 | 5.0 | 7 | -4.5 | -33 | i | 28
CC1Cc2ccccc2N1C(=O)CCn1c(=O)oc2ccccc21 (stereo not given)
    -16 | 0.8 | 1 | -3 | -9.7 | -15 | -4.9 | -2 | i | -12
Cc1cc(C)nc(NS(=O)(=O)c2ccc(NC(=O)c3snnc3C)cc2)n1
    -9 | 0.1 | 10 | 2 | -6.4 | 14 | 1.4 | 18 | i | -10
O=[N+]([O-])c1ccc2c(c1N1CCCCC1)=NC1(CCCCC1)[N+]=2[O-]
    2 | 4.5 | 22 | -5 | . | 6 | 2.2 | 17 | i | -4
COc1ccc(S(=O)(=O)Nc2cc3c4c(c2)CCN4C(=O)CC3)cc1C
    -1 | 1.9 | -5 | . | -0.3 | -3 | 3.2 | 2 | i | -1
O=c1c2c3nc4ccccc4nc3n(/N=C/c3ccncc3)c2ncn1-c1ccccc1
    . | 0.7 | . | -1 | . | . | . | -8 | . | 1
CC(C)C1N=C2c3ccccc3N=C(SCc3cc(=O)n4cc(Cl)ccc4n3)N2C1=O (stereo not given)
    . | -0.1 | . | -39 | . | . | . | -1 | . | 23
CCc1ccc(C2C(C#N)=C(N)Oc3n[nH]c(CC(=O)OC)c32)cc1 (stereo not given)
    7 | 2.9 | . | 1 | . | . | . | 2 | . | -6
COc1ccc(SC[C@H](Cc2ccccc2)N2CCN(CCc3ccccc3)CCC2=O)cc1
    39 | 3.1 | -25 | -5 | 6.5 | -67 | -0.6 | -15 | i | 26
COc1ccccc1N1CCN(Cc2ccsc2)CC1
    36 | 6.5 | . | -2 | . | . | . | -5 | . | 9
C=CCN=C1N[C@@H](c2ccccc2)C(C(=O)OC)=C(C)N1CC
    -3 | 2.3 | . | -5 | . | . | . | -8 | . | 14
O=C(c1ccccc1)c1cn[nH]c1-c1ccccc1O
    20 | 2.4 | . | -7 | . | . | . | 6 | . | -21
COCCNC(=O)c1ccccc1NC(=O)C1COc2ccccc2O1 (stereo not given)
    -1 | 2.3 | . | -7 | . | . | . | 5 | . | -8
CC(C)c1ccccc1NC1=CC(=O)CC(C)(C)C1
    10 | ? | 6 | -6 | -0.6 | 7 | -0.6 | 3 | i | 1
CCOCC(=O)Nc1nnc(Cc2ccc(OC)c(OC)c2)s1
    . | 2.9 | . | 2 | . | . | . | 0 | . | -10
CCN(CC)C(=O)N1CCN(S(=O)(=O)c2c(C)cc(C)cc2C)CC1
    -2 | 7.2 | -27 | . | 0.0 | -28 | 7.8 | 1 | i | 10
CC(=O)c1c(C)[nH]c(C(=O)Nc2cccc(C(F)(F)F)c2)c1C
    -1 | 1.7 | -56 | 2 | -13 | -69 | -15 | 13 | i | 22
COC(=O)c1ccc(Cn2nnc3c(=O)[nH]c(C4CCCN(S(=O)(=O)c5ccccc5Cl)C4)nc32)cc1 (stereo not given)
    3 | -5.3 | 7 | 3 | -1.5 | 8 | -1.0 | -8 | i | 4
COc1cccc(-c2nc(SC)nc3sc(C(=O)NC(C)(C)C)c(N)c23)c1
    4 | 0.3 | . | 4 | . | . | . | 13 | . | 10
COc1ccc(NC(=O)NCCN2C(=O)C3C4C=CC(C4)C3C2=O)cc1 (stereo not given)
    -15 | 2.3 | 20 | -2 | -1.5 | 21 | 0.1 | -1 | i | -9
C=CCn1c(SCC(=O)N2CCCC2)nc2cc(C(=O)NCC3CCCO3)ccc2c1=O (stereo not given)
    3 | 1.5 | . | -2 | . | . | . | -6 | . | 4
CCc1csc(CCNC(=O)C2CCC(=O)N(Cc3ccccc3F)C2)n1 (stereo not given)
    -13 | -1.5 | 12 | 6 | -6.4 | 11 | 0.0 | 2 | i | -7
C/C(CC(=O)Nc1cccc(Br)c1)=N\NC(=O)c1ccc(O)cc1O
    50 | ? | -14 | 0 | 3.1 | -2 | 5.9 | 1 | i | 4
CC(=O)Nc1ccc2nc(NC(=O)CCc3ccccc3)sc2c1
    18 | 1.4 | -13 | -2 | -1.0 | -17 | -4.9 | -4 | i | 9
COc1ccc(-n2nnnc2SC(C)C(=O)NCC(=O)Nc2ccc(F)c(F)c2F)cc1 (stereo not given)
    -2 | 0.3 | . | -4 | . | . | . | 4 | . | -1
CCn1c(SCc2nc3ccccc3c(=O)[nH]2)nnc1-c1cccnc1
    0 | -2.3 | . | -9 | . | . | . | 11 | . | -15
CCO/C=N/Nc1nc(C(F)(F)F)nc2c1cnn2Cc1ccccc1
    1 | -0.1 | -7 | 15 | 7.7 | -4 | -1.0 | 13 | i | 8
Nn1c(SCc2ccccc2)nnc1C1CCCCC1
    . | 0.2 | 18 | 2 | -2.0 | 10 | 3.5 | 12 | i | 2
CN(CC(=O)Nc1ccccc1Br)C(=O)c1ccc(COc2ccccc2)cc1
    8 | 1.4 | -13 | 0 | -1.6 | -42 | -5.4 | 22 | i | 7
CCN(CC)CCNC(=O)c1ccc2c(c1NCCO)C(=O)c1ccccc1C2=O
    -35 | -3.8 | -43 | 116* | 16 | -20 | 31 | -4 | i | 9
CN1CCN(c2ccc(S(=O)(=O)N3CCCCC3)cc2NC(=O)c2ccc(F)cc2F)CC1
    . | -5.6 | . | 5 | . | . | . | 0 | . | 48
Cc1ccnc2nc(C(=O)Nc3ccc(N4CCOCC4)cc3)nn12
    . | -4.6 | . | 5 | . | . | . | 7 | . | -6
CC1=CC(C)(C)N(C(=O)CCl)c2cc(C)ccc21
    2 | . | 9 | 4 | -0.4 | 13 | 1.2 | -10 | i | 11
O=C(COCc1cc(-c2ccc3c(c2)OCO3)on1)N1CCN(c2ccc(F)cc2)CC1
    3 | 2.4 | -4 | -2 | 0.1 | -7 | 1.0 | 2 | i | -9
COc1ccc(CC(=O)OCC(=O)Nc2ccc(Cl)cc2C)cc1
    -3 | . | 1 | -5 | -1.6 | 6 | 1.2 | . | i | .
Cc1cc(C)c(S(=O)(=O)Nc2ncn[nH]2)cc1C
    18 | 2.5 | 7 | -6 | -0.5 | -2 | -0.7 | -9 | i | ?

Source: PubChem (Broad Institute)
